CDC25B CDK2 inh: primary biochemical HTRF screen for blockers of M-phase inducer phosphatase 2 binding to CDK2/cyclin A; P30305+P24941; 0.72% of 94,000 active; HTRF CDC25B-CDK2/CyclinA binding, anti-His/anti-Flag; hits give high values; z-score (test concentration not listed);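 also: score is relative to mean and SD of negative controls; strong numbers were not always called active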
TAR Tat displ: TAR RNA-Tat peptide displacers, HIV-1, primary screen, biochemical, FRET, FAM/TAMRA-labeled Tat; HIV-1 TAR RNA, Tat peptide displacement FRET; hits give high values; z-score (no concentration beside the values); 0.6% of 100,000 active; AID 1259389, 2018;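 also: score is relative to mean and SD of negative controls; some compounds called inactive have numbers as strong as hits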
* marks the source's active call; other numbers are inactive results; . = not tested or not shown.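 The calls were made as follows: active = z-score from 3 up in half or more of its runs; inactive = the rest.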 Random draw from the library, and some 0.87% of all compounds hit somewhere here.

| SMILES | TAR Tat displ | CDC25B CDK2 inh |
| --- | --- | --- |
| COc1ccccc1CNc1ncnc2scc(-c3ccc(F)cc3)c12 | -0.1 | . |
| CCc1ccc(C(=O)c2cncc(Br)c2)cc1 | 0.48 | 0.55 |
| CC(C)CC(NS(=O)(=O)c1ccc2c(c1)CCCC(=O)N2)C(=O)NC1CCCCC1 (stereo not drawn) | 0.41 | . |
| Cc1cccc2nc(-c3ccncc3)c(Nc3ccc4c(c3)OCO4)n12 | . | -3.5 |
| CCN1C(=O)C(O)(CC(=O)c2ccc(C(C)(C)C)cc2)c2ccccc21 (stereo not drawn) | 0.14 | -2 |
| Cc1nc(Nc2ccc(O)cc2)c2c3c(sc2n1)CCCC3 | 1.3 | . |
| Cc1noc(C(=O)Nc2cccnc2)c1Cl | 1.6 | -1.2 |
| Cc1ccc(C#N)c(SCC(=O)c2ccc(-c3ccccc3)cc2)n1 | 0.77 | -2.9 |
| CC(C)CC(=O)Nc1nn2c(C(C)C)nnc2s1 | 2.1 | -1.4 |
| O=C1C2=C(Nc3ccccc3S(=O)(=O)C2c2ccc(Cl)cc2)c2ccccc21 (stereo not drawn) | -6.9 | 0.09 |
| COc1ccc(CCNS(=O)(=O)c2cc(-c3cc(C)no3)ccc2C(C)C)cc1OC | 1.7 | . |
| CCOC(=O)c1c(N=Cc2ccncc2)n[nH]c1C | . | -0.64 |
| CC(=O)c1sc(-c2ccccc2)cc1NS(=O)(=O)c1ccc(C(F)(F)F)cc1 | . | -0.26 |
| Cc1c(C(=O)N2CCCCC2)c(S(=O)(=O)N2CCC(C)CC2)c(C)n1C | 0.5 | . |
| O=C(Nc1ccc2c(c1)OCO2)N1CCN(c2nc3cc(F)ccc3n3cccc23)CC1 | -0.01 | . |
| COc1ccc(Cc2nn3c(C(C)C)nnc3s2)cc1OC | -1.3 | -2.3 |
| CCOc1nc(-c2ccc(C)cc2)ccc1-c1noc(-c2cccnc2)n1 | -1.2 | -0.25 |
| NNC(=O)c1ccc(Cl)cc1Cl | . | -0.29 |
| NC(=S)c1c(Cl)cc(C(F)(F)F)cc1Cl | . | -1.5 |
| CC(=O)NC(N)=NCCCC(N)C(=O)O (stereo not drawn) | . | -1.6 |

Quoted from the listing:
CCc1ccc(C(=O)c2cncc(Br)c2)cc1 | TAR Tat displ = 0.48
CC(=O)c1sc(-c2ccccc2)cc1NS(=O)(=O)c1ccc(C(F)(F)F)cc1 | CDC25B CDK2 inh = -0.26
COc1ccc(CCNS(=O)(=O)c2cc(-c3cc(C)no3)ccc2C(C)C)cc1OC | TAR Tat displ = 1.7

The results go on:
| SMILES | TAR Tat displ | CDC25B CDK2 inh |
| --- | --- | --- |
| COc1ccc(/C=C(\C#N)S(=O)(=O)c2ccc(C(F)(F)F)cn2)cc1OC | . | -2.1 |
| COc1cc(C2C(C#N)=C(N)Oc3cc(O)ccc32)ccc1OCc1ccccc1 (stereo not drawn) | -2.8 | -1.2 |
| Cc1c(N(Cc2c(F)cccc2Cl)S(C)(=O)=O)c(=O)n(-c2ccccc2)n1C | 2 | . |
| O=c1cc(CN2CCCC2)nc2nc(-c3ccccc3)[nH]n12 | 0.53 | -1.2 |
| Cc1noc(-c2ccc(C)c(S(=O)(=O)NCc3ccc(F)cc3)c2)n1 | 1.5 | . |
| O=C(CN1CCOCC1)N1CCN(c2ccc3ccccc3n2)CC1 | 1.4 | -1.3 |
| CCc1cc(C(=O)Nc2sc3c(c2C#N)CCCC3)no1 | 0.3 | -2.1 |
| COc1ccc(-n2ccnc2SCC(=O)NC2CCCC2)c(OC)c1 | 2.2 | . |
| Cc1nonc1NC(=O)COc1ccc(F)cc1 | -0.1 | -0.23 |
| Cc1cc2c(cc1S(=O)(=O)N1CCN(C3CCCCC3)CC1)OCCN2C | 3.2 | . |
| Cn1c(=O)c2c(ncn2CC(O)CN2CCCCC2)n(C)c1=O (stereo not drawn) | 0.99 | 1.2 |
| COC(=O)c1sc2scc(C)c2c1C | . | -1.8 |
| CN(C)CCCNc1ncnc2c1c(-c1ccccc1)cn2-c1ccccc1 | 1.1 | . |
| CC(CN1CCOCC1)OC(=O)C1c2ccccc2Oc2ccccc21 (stereo not drawn) | 2.6 | -0.61 |
| Cc1noc(/C=C/c2ccco2)c1S(=O)(=O)N1CCC(C(=O)NC2CCCC(C)C2C)CC1 (stereo not drawn) | -2 | -1.5 |
| CCC(=O)N1c2ccccc2NC2=C(C(=O)CC(c3ccco3)C2)C1c1ccco1 (stereo not drawn) | 0.97 | -2.3 |
| COc1ccc(C2C3(C#N)C(N)=NC4(OCCO4)C23C#N)c(OC)c1OC (stereo not drawn) | . | -2 |
| O=S1(=O)N=C(SCc2ccccc2Cl)Nc2ccccc21 | 1.4 | . |
| O=C(CSc1nnc(CCCN2C(=O)c3cccc4cccc(c34)C2=O)n1-c1ccccc1)N1CCN(CCO)CC1 | . | -1.5 |
| Cc1cc(=S)n(-c2ccccc2)[nH]1 | . | -5.2 |
| O=C(NCCc1cccs1)c1cc(CN2CCOCC2)on1 | 0.28 | . |
| CCS(=O)(=O)N1CCC2(CC1)OC(=O)C(C)=C2C(=O)Nc1ccccc1Br | -0.47 | . |
| CN(C)CCNC(=O)c1ccc2c(c1)NC(=O)C1CCCCN21 (stereo not drawn) | 0.94 | . |
| S=C1NC2(CCCCC2)NN1c1ccccc1 | . | -1.4 |
| O=C(Cn1cnc2sc3c(c2c1=O)CCCC3)Nc1ccc(F)c(Cl)c1 | 2.2 | -0.37 |
| CCc1c(C)nc2ncnn2c1Nc1ccc(OC)c(OC)c1 | 0.89 | . |
| O=C(c1cc(-c2ccc(Br)cc2)n[nH]1)N1CCCC1 | -0.41 | . |
| Cn1cc(S(=O)(=O)c2ccccc2)c(=O)c2cc(F)c(N3CCCCC3)cc21 | -0.1 | . |
| CCOC(=O)c1ccc2c(c1)[C@@H]1C=CC[C@@H]1[C@H](C(=O)OCC)N2 | 0.05 | 1.5 |
| COc1cccc(C2C(C(=O)OCC3CCCO3)=C(C)NC3=C2C(=O)CCC3)c1 (stereo not drawn) | 2.6 | -0.71 |
| O=C(/C=C/c1cccs1)NC(=S)NNC(=O)Cn1nnc(-c2cc(Cl)cc(Cl)c2)n1 | . | -1.8 |
| C=CCn1c2ccccc2c2nnc(SCC(=O)Nc3ccccc3OC)nc21 | -0.41 | 0.65 |
| COc1ccc(OC)c(NC(=O)c2cc3c(s2)-c2ccccc2OC3)c1 | 1.3 | -0.21 |
| CC(=O)N1N=C(c2ccc(-c3ccccc3)cc2)OC1c1ccc2c(c1)OCO2 (stereo not drawn) | 1.1 | . |
| CCCn1c(C2CC(=O)N(C(C)C)C2)nc2ccccc21 (stereo not drawn) | -0.5 | -1.1 |
| CCn1c(=O)/c(=C2\Sc3ccccc3N2C)s/c1=C\c1ccccn1 | 1.2 | . |
| COC(=O)C1=C(C)N(C)C(C)=C(C(=O)OC)C1c1ccccc1 | . | -0.64 |
| CC(C)N(Cc1ccccc1)c1c(-c2ccccc2)c(=O)c1=O | 0.03 | . |
| CCOC(=O)c1c(C)oc2ncnc(N3CCN(c4ccc(F)cc4)CC3)c12 | 1.3 | . |
| C=CCSc1nc2c(c(=O)[nH]1)C(c1ccc(C)cc1)C(C(=O)OCC)=C(C)N2 (stereo not drawn) | -0.79 | -1.2 |
| Cc1csc(SCCn2c(N3CCN(c4ccccc4)CC3)nc3c2c(=O)[nH]c(=O)n3C)n1 | 2.2 | -1.1 |
| CC(C)(CO)NC(=O)C1CCCNC1=O (stereo not drawn) | 1.1 | -0.8 |
| CN1C(=O)C(Cc2ccccc2)(c2ccccc2)c2ccccc21 (stereo not drawn) | . | -1 |
| COc1ccc(O)c(C(=O)CC(=O)c2ccc(F)cc2)c1 | -0.19 | -0.72 |
| O=c1cc(CSc2nnc(-c3ccccc3)o2)nc2sc(C3CC3)nn12 | 0.46 | -2.3 |
| COC(=O)Oc1ccc2c(=O)c(-c3ccccc3Cl)coc2c1 | 0.76 | 0.47 |
| O=C(C[n+]1ccccc1)c1ccccc1 | . | -0.57 |
| CCCNC(=O)C1CCCN(S(=O)(=O)N2CCOCC2)C1 (stereo not drawn) | 2.7 | . |
| CC(C)OC(=O)Cn1c2ccc(Br)cc2c2nc3ccccc3nc21 | 2.8 | -0.43 |
| O=C(Nc1ccc2n[nH]nc2c1)c1sc2ccccc2c1Cl | . | -5.8 |
| CCc1nn2c(=O)cc(COC(=O)COc3ccc(C)c(C)c3)nc2s1 | 0.46 | . |
| CNC(=O)c1cccn1-c1nnc(N2CCCCC2)s1 | 0.96 | . |
| O=C1CC(c2ccc(Cl)cc2)c2c(n[nH]c2-c2ccccc2)N1 (stereo not drawn) | 2 | -1.2 |
| Cc1nc2c(sc3nc4c(cc32)COC(C)(C)C4)c(=O)[nH]1 | . | -2.6 |
| Cc1cc(O)c(C(C)C)cc1NC(=O)c1cc(C(C)(C)C)oc1C | 0.59 | -0.26 |
| CC(C)(C)c1ccc(CN2C(=O)C(=O)c3ccccc32)cc1 | -2.1 | . |
| COc1cccc(Nc2nc(NC3CCCC3)nc3c2cnn3C)c1 | 0.11 | . |
| Cc1ccc(NC(=O)Nc2sc(=S)n(C)c2C)cc1 | 0.26 | -1.1 |
| O=C(CCC(=O)N1CC=C(c2c[nH]c3ccccc23)CC1)NCc1ccco1 | -3.1 | . |
| NCC1CCC(C(=O)NC(Cc2ccccc2)C(=O)Nc2ccc(CC(=O)O)cc2)CC1 (stereo not drawn) | 0.22 | . |

Of the compounds above, 4 have bromine.
| SMILES | TAR Tat displ | CDC25B CDK2 inh |
| --- | --- | --- |
| CCc1ccc(C(=O)c2cncc(Br)c2)cc1 | 0.48 | 0.55 |
| CCS(=O)(=O)N1CCC2(CC1)OC(=O)C(C)=C2C(=O)Nc1ccccc1Br | -0.47 | . |
| O=C(c1cc(-c2ccc(Br)cc2)n[nH]1)N1CCCC1 | -0.41 | . |
| CC(C)OC(=O)Cn1c2ccc(Br)cc2c2nc3ccccc3nc21 | 2.8 | -0.43 |

Other entries:
| SMILES | TAR Tat displ | CDC25B CDK2 inh |
| --- | --- | --- |
| Cc1cc2nc(CSc3n[nH]c(-c4ccccc4)n3)cc(=O)n2o1 | 0.14 | . |
| COC(=O)c1ccc2c(=O)[nH]c3c(C(=O)N4CCCC4)sc(=S)n3c2c1 | 0.45 | . |
| Cn1ncc2c(NCCc3cccs3)nc(N3CCN(CCO)CC3)nc21 | 0.74 | . |
| O=C(O)Cn1ncn2nc(-c3cccs3)cc2c1=O | . | -2.2 |
| Cc1ccc(-c2n[nH]c3c2C(c2ccccn2)N(C)C3=O)cc1 (stereo not drawn) | 0.48 | 1.3 |
| O=C(NCCc1cccs1)c1cnc(N2CCOCC2)nc1 | 0.59 | . |
| O=c1c(S(=O)(=O)c2ccccc2)cn(Cc2cccc(F)c2)c2cc(F)c(F)cc12 | 3 | -3 |
| CCOc1ccc(Nc2ncnc3c2nc2n3CCCCC2)cc1 | -0.76 | . |
| Cc1c2c(=O)n(-c3nc4ccccc4s3)n(Cc3ccccc3)c2cc(=O)n1CC1CCCO1 (stereo not drawn) | 2.6 | -1.1 |
| CN1C(=O)C(C)(C)c2cc(S(=O)(=O)N(Cc3ccco3)CC3CCCO3)ccc21 (stereo not drawn) | 0.4 | . |
| COc1ccc(OC)c(NC(=O)c2nn(C)c3c2CSc2ccccc2-3)c1 | 1.7 | -0.48 |
| CNC(=S)Nc1ccc(Oc2ccccc2)cc1 | . | -0.28 |
| Cc1ccc(-n2nc(C)cc2C)nn1 | . | -0.93 |
| CC1CCc2c(sc3ncn4c(C(C)C)nnc4c23)C1 (stereo not drawn) | . | -1.7 |
| CN1C(C(=O)N2CCCC2)=CC(c2cccs2)=NS1(=O)=O | 1.1 | -1.5 |
| COC(=O)c1ccc(OCC2c3cc(OC)c(OC)cc3CCN2C(=O)Cc2ccccc2)cc1 (stereo not drawn) | . | -0.74 |
| Cc1cccc(-c2noc(CN(C)S(=O)(=O)c3ccccc3)n2)c1 | 0.87 | 0.66 |
| Cc1ccc(CNc2ncnc3onc(-c4cccc(Cl)c4)c23)cc1 | -0.01 | . |
| COc1cc(C2C(C(=O)OCC3CCCO3)=C(C)NC3=C2C(=O)CCC3)ccc1OC(C)=O (stereo not drawn) | 2.4 | -1.9 |
| CCNC(=O)CCCc1nc2cccnc2n1CCC(C)C | -6.2 | . |
| CC(=O)NNC(=O)c1cccc([N+](=O)[O-])c1 | . | -0.78 |
| COCCN1C(=O)C2C(C(=O)Nc3cccc(Cl)c3)C3C=CC2(O3)C1C(=O)NC1CCCCC1 (stereo not drawn) | -0.15 | -1.6 |
| O=C1CC(c2ccccc2F)C2=C(CC(c3ccccc3Cl)CC2=O)N1 (stereo not drawn) | 1.4 | -1.4 |
| N/C(=N\OC(=O)c1ccccc1)c1ccn[nH]1 | . | -1.6 |
| Cc1nccc(-c2cccc(NN=C(C#N)C#N)c2)n1 | . | 0.16 |
| Cc1cccc(N(Cc2cc3ccccc3[nH]c2=O)S(C)(=O)=O)c1 | 0.79 | -1.1 |
| CC1CCN(c2nn3c(=O)c(C(=O)NCCN(C)C)cnc3s2)CC1 | -1.3 | . |
| CCOC(=O)Cn1c(=O)oc2cc(Cl)ccc21 | . | -1.3 |
| O=S(=O)(Nc1cccc(-c2ccc(N3CCCCC3)nn2)c1)c1cccc(F)c1 | 2.6 | . |
| CC(C)(C)c1ccc(-c2nc(NCCN3CCOCC3)c3ccccc3n2)cc1 | -0.11 | -0.57 |
| COC(=O)c1ccc(CSc2nc(-c3ccc(F)cc3)nc3c2c(=O)n(C)c(=O)n3C)o1 | . | -2.4 |
| COc1ccc2cc(NC(=O)NCc3ccco3)n(C)c2c1 | 0.88 | -1.5 |
| CCc1cc(C2CCCN2C(=O)Cn2nc(C(F)(F)F)cc2C)on1 (stereo not drawn) | 1.6 | . |
| COc1ccccc1OCCSc1nc(-c2ccc3c(c2)OCO3)nc2cc(=O)[nH]n12 | 2.1 | . |

Screening results: PubChem, Center for Chemical Genomics, University of Michigan
